Menin-MLL FL inh – qHTS Assay for Inhibitors Targeting the Menin-MLL Interaction in MLL Related Leukemias: Competition With Fluorescein Labeled MLL-derived Peptide. Fluorescence polarization, fluorescein-MLL peptide displacement from menin. FP activity change, % at 61.4 µM. 290,000 tested, under 10 active; inconclusive = falling polarisation curve, or a change in total fluorescence; inactive = total fluorescence flat and polarisation flat or rising; no compound was filed as active; the % refers to the polarisation; negative = inhibition;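 note: % of control where 0% means no effect; inhibitors lower the polarisation; unlabelled MLL peptide was the positive control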
ClpP mod – qHTS Assay for Activators of ClpP; Potency, µM (series often up to 57.5 µM), inactives show top-dose activity change, negative = active; ATP-dependent Clp protease proteolytic subunit (Bacillus subtilis (strain 168)), P80244; purified B. subtilis ClpP, FRET peptide cleavage, 20 min; 340,000 tested, 1.9% active; AID 651965, 2013; active = well fitted falling curve with a large enough effect; inconclusive = small, poorly fitted or top-dose-only effect; inactive = no such curve, though single readings can be large or run the other way; note: potency is the fitted concentration of half-maximal effect; the source files actives as falling curves though it sought activators and does not explain the sign; nearly all actives have a fitted effect of over 65% in size; many hits overshoot -100%
Target sequence (P80244 whole entry, looked up): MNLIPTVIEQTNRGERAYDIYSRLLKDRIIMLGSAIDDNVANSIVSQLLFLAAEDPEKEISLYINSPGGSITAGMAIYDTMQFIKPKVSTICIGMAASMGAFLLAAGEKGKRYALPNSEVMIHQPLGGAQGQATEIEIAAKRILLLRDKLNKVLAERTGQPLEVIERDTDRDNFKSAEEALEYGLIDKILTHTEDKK
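Buffer: 100 mM Tris/HCl pH8, 100 mM KCl, 0.05% low protease BSA, 2.5% glycerol, 0.01% Tween-20. ClpP 10 microg/mL final; 20 min RT; delta FRET normalized to ADEP and DMSO controls.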
TRPML1 blocker – qHTS for Inhibitors of the Human Mucolipin Transient Receptor Potential 1 (TRPML1). TRPML1-inducible cells, Ca2+ dye fluorescence, FDSS; active compounds read low; inhibition of EC80 agonist-evoked calcium signal. Mucolipin-1 (Homo sapiens), Q9GZU1. 390,000 tested, 0.02% active. activity change, negative = inhibition, % (no concentration beside the values); in the data active means activity change below about -50%; inconclusive means about -30% to -50%; inactive means above about -30%;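 note: stimulus is agonist 54-4 at its EC80 concentration; % is set by controls: 0 for no effect and ±100 for the full control effect; compound concentration not given in the record; the text of the record puts the active cut at -80%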
Target sequence (Q9GZU1 whole entry, looked up): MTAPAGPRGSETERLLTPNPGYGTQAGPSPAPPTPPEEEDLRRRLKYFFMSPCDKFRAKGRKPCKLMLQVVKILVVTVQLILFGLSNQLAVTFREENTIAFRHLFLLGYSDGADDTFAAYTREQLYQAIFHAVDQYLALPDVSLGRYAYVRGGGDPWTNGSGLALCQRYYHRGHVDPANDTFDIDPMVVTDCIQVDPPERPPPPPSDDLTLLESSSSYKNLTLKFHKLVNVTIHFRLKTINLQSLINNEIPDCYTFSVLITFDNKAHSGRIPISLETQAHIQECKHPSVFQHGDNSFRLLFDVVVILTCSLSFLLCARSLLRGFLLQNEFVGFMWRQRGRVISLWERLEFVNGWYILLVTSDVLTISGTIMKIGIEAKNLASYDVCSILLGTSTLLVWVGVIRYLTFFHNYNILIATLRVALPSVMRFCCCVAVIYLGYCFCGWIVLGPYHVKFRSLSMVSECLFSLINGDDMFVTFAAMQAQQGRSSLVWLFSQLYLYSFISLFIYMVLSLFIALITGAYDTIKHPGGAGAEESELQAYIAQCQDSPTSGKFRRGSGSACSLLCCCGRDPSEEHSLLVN
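Tet-induced TRPML1-DL cells loaded with Ca8 no-wash calcium dye were read kinetically on FDSS. Compound addition was followed by EC80 agonist 54-4 (4 uM final); inhibition was read over 110 s.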
gsp agonist – qHTS for Agonist of gsp, the Etiologic Mutation Responsible for Fibrous Dysplasia/McCune-Albright Syndrome: qHTS | gsp mutant cells, cAMP HTRF, 30 min; control for the full effect not named in the record | Potency, µM (doses to about 76.9 µM), for the others: at the highest dose activation (cAMP increase), hits mostly activators | 340,000 tested, 0.13% active; active = well fitted activation curve with a large enough effect; inconclusive = small, poorly fitted or top-dose-only effect, or another doubt; inactive = no such curve, though single readings can be large or run the other way; cell line not stated here;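 note: phosphodiesterase inhibitor Ro 20-1724 added with compounds to block cAMP breakdown; potency is the fitted concentration of half-maximal effect; nearly all actives have a fitted effect of over 60% in size; about a fifth of the inactives were tested at one dose only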
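Cells stably selected in G418 were plated at 2000/well, grown 16-24 hr, then given compounds in DMSO with the PDE inhibitor […] (300 uM solution added) for 30 min at 37C; cAMP was read by HTRF.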
gsp antag – qHTS for Antagonists of gsp, the Etiologic Mutation Responsible for Fibrous Dysplasia/McCune-Albright Syndrome: qHTS; gsp-mutant cells, cAMP HTRF, 30 min; control for the full effect not named in the record; Potency, µM (top dose mostly 76.9 µM), inactives show at the highest dose activity change, negative = inhibition, most hits filed as inhibitors; 340,000 tested, 0.4% active; AID 624288, 2012; active = falling curve of any shape with a large fitted effect; inconclusive = falling curve, mostly with a smaller effect; inactive = flat or rising curve; cell line not stated here;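 note: intracellular cAMP measured with PDE inhibitor Ro 20-1724 present during compound exposure; potency is the fitted concentration of half-maximal effect; % is set by controls: 0 for no effect and ±100 for the full control effect; nearly all actives have a fitted effect of over 65% in size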
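HTRF cAMP read-out (cAMP-d2 plus anti-cAMP antibody-K in lysis buffer, 30 min RT). Before lysis, cells are exposed to compounds with […] for 30 min at 37C in DPBS containing Ca/Mg, BSA and Tween 20.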
TRPML1 ag – qHTS for Agonists of the Human Mucolipin Transient Receptor Potential 1 (TRPML1); AID 624414, 2012; activation, % (no concentration beside the values); Mucolipin-1 (Homo sapiens), Q9GZU1; TRPML1-expressing cells, Ca2+ dye fluorescence, FDSS; host cell line not named in the record; reference of the full effect not given here; 410,000 tested, 0.12% active; in the data active = activation above about 50%; inconclusive = about 30% to 50%; inactive = below about 30%; note: 0% is about no effect; the text of the record puts the active cut at 80%
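Tet-induced TRPML1-DL cells, 1,500 per well, cultured overnight, were loaded with a no-wash Ca2+ dye for 45–90 min. Calcium fluorescence was recorded on the FDSS for 110 s after compound addition, before the EC80 agonist (4 uM 54-4) was added.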
* hit, by the source's call; ? = inconclusive; . = no result given; [ ] = dose if it differs, or a comment.

SMILES	Menin-MLL FL inh	ClpP mod	TRPML1 blocker	gsp agonist	gsp antag	TRPML1 ag
O=C1OCCN1N1CCOC1=O	.	.	-16	2%	16%	-0.3
Cc1ccc(S(=O)(=O)Nc2cccc(S(=O)(=O)Nc3ccccc3C(=O)O)c2)c(C)c1	.	.	12	5%	-5%	0.8
COc1ccc(C=O)cc1Cn1cnc2c(cnn2C)c1=O	-0.6	-1.2%	.	?	21%	.
O=C(CN1CCc2ccccc2C1)Nc1ccccc1C(F)(F)F	-3.2	32µM*	-8	19%[15.4 µM]	-7%	2.4
O=C1/C(=C\c2ccc(O)c(O)c2)N=C2CCCCCN12	?	.	-12	-17%[15.4 µM]	?	0.6
COc1cc(C#N)ccc1OCC(=O)c1ccc2c(c1)OCCO2	3.3	-2.1%	-17	4%	-1%	2.2
c1ccc2c(NCC3CCCO3)nc(N3CCCCC3)nc2c1 (configuration not stated)	1.3	2.7%	19	6%	3%	2.5
O=C(COC(=O)C1CCCCC1)Nc1ccc(N2CCCCC2)cc1	1.6	-3.1%	67	-41%[inhibitor]	1%	-1.1
Cc1ccc(C(=O)NCCn2c(N)c(C#N)c3nc4ccccc4nc32)cc1	11	22µM*	-9	?	12%	-1.4
CCN(CC)S(=O)(=O)c1ccc(/C=C/C(=O)OCC(=O)N(C)C)cc1	-1.2	.	-10	22%[15.4 µM]	-1%	0.9
Cc1ccc(C(=O)CC(=O)c2ccccc2C)c(O)c1	2.7	0.4%	-1	6%[15.4 µM]	14%	-1.8
COC(=O)c1ccc(C(=O)NN)cc1	2.9	0.5%	0	12%[15.4 µM]	6%	-0.7
N#Cc1ccc(CN2CCN(CC(=O)Nc3ccccc3C(=O)NC3CC3)CC2)cc1	.	-1.1%	4	-16%	-10%	-0.3
CC(=O)Nc1ccc2nc(NC(=O)COc3ccccc3Cl)sc2c1	-4.9	-0.7%	-5	-3%[15.4 µM]	-7%	0.4
C=CCNC(=O)C1CCC(C(=O)NCC=C)CC1 (configuration not stated)	3.2	1.4%	20	29%	5%	-0.7
CCN1/C(=C2/SC(=S)NC2=O)Sc2ccccc21	0.4	-0.7%	9	?	-14%	0.2
Clc1ccc(Cn2ccc(C3CC3)n2)cc1	-4.5	-4.3%	-10	13%	5%	1.0
COc1ccc(OC)c(NC(=O)Nc2c(C)n(C)n(-c3ccccc3)c2=O)c1	.	-1.1%	-5	.	.	0.4
COc1ccc(CCNC(=O)CSc2nnc(Cn3c(=O)sc4ccccc43)n2C)cc1OC	1.5	-1.2%	-6	-3%	1%	0.3
COc1ccc(C(=O)N2CCCC(C(N)=O)C2)cc1S(=O)(=O)N1CCOCC1 (configuration not stated)	.	1.1%	-11	-54%[inhibitor]	16%	0.7
O=C(NCCCN1CCN(c2ccccc2F)CC1)c1nnc(Cc2ccc(Cl)cc2Cl)o1	.	-0.7%	9	.	.	2.0
CN1CCN(CCC(=O)Nc2ccccc2)CC1	4.7	-3.2%	-4	-4%[15.4 µM]	13%	-0.2
COc1cccc(N2C(=O)CC(N3CCN(S(=O)(=O)c4ccccc4)CC3)C2=O)c1 (configuration not stated)	-1.6	0.3%	7	2%	4%	0.7
Cc1ccccc1NC(=O)Cc1nc(COC(=O)c2cccnc2Cl)cs1	.	0.6%	4	-46%[inhibitor]	-11%	-0.1
Cc1cc(C)cc(OCC(=O)NNC(=S)NC(=O)C2CC2)c1	.	-1.8%	-1	?	-8%	1.9
O=C(Nc1ccc(S(=O)(=O)Nc2cnc3ccccc3n2)cc1)c1ccc(Br)o1	2.8	?	-2	-14%	-10%	-0.1
C[C@H](NC(=O)N1CCn2c1nc1ccccc12)C(=O)NCc1ccc(F)cc1	2.2	1.4%	31	-26%	-15%	-1.0
Cc1ccc(C(C)NC(=O)c2ccncc2)cc1C (configuration not stated)	2.1	0.0%	-8	-4%	3%	-0.7
Cc1cccc(Cn2nc(C)n3c(cc4cc(C)ccc43)c2=O)c1	.	-1.8%	16	.	.	-1.2
O=C(NCc1ccccc1Cl)c1c2c(nc3ccccc13)C(=O)N(C1CCCCC1)C2	.	-17%	-14	.	.	2.1
O=C(Nc1ccccc1C(F)(F)F)N1CC=C(c2c[nH]c3ccccc23)CC1	.	?	-5	.	.	2.3
CCCCN1CCc2c([nH]c3ccc(C)cc23)C1=O	4.0	?	19	-16%	15%	-0.1
Cc1cc2oc(=O)c(CC(=O)O)c(C)c2c2occ(C(C)(C)C)c12	-15	.	7	21%	-28%	-0.4
CCOC(=O)C1=CCN(S(=O)(=O)c2ccccc2C)C1c1ccc(Cl)c(Cl)c1 (configuration not stated)	.	0.8%	2	.	.	1.2
O=C(CNC(=O)C1CCCCC1)NC1=NCCS1	-0.9	0.1%	33	4%	1%	-0.5
O=C(CN(Cc1ccccc1C(F)(F)F)C(=O)CNC(=O)c1ccco1)NC1CCCC1	-1.0	-1.0%	11	-49%[inhibitor]	-2%	1.5
COCCCNC(=S)N(CCCN(C)C)Cc1cc2cc3c(cc2[nH]c1=O)OCCO3	-2.4	4.1%	-3	13%	-5%	0.9
O=C(Nc1ccc(C(=O)O)cc1)/C(=C\c1ccc2c(c1)OCO2)NC(=O)c1ccco1	1.4	-1.8%	-7	-8%	1%	0.0
CCN(C(=O)C1CCN(S(=O)(=O)c2cccc3nonc23)CC1)c1ccccc1	-1.0	-1.0%	36	-38%[inhibitor]	-3%	-0.1
O=C(c1cc2nc(-c3ccco3)cc(C(F)(F)F)n2n1)N1CCCCCC1	6.0	-19%	28	22%	-5%	0.8

Next section, starting with the last 3 of the part before.
SMILES	Menin-MLL FL inh	ClpP mod	TRPML1 blocker	gsp agonist	gsp antag	TRPML1 ag
O=C(Nc1ccc(C(=O)O)cc1)/C(=C\c1ccc2c(c1)OCO2)NC(=O)c1ccco1	1.4	-1.8%	-7	-8%	1%	0.0
CCN(C(=O)C1CCN(S(=O)(=O)c2cccc3nonc23)CC1)c1ccccc1	-1.0	-1.0%	36	-38%[inhibitor]	-3%	-0.1
O=C(c1cc2nc(-c3ccco3)cc(C(F)(F)F)n2n1)N1CCCCCC1	6.0	-19%	28	22%	-5%	0.8
Cc1ccc(C(=O)c2cn(CC(=O)Nc3ccc4c(c3)OCCO4)c3nc(C)ccc3c2=O)cc1	.	0.0%	13	.	.	-0.1
CNC(=O)C1CCN(C(=O)c2ccc(-c3ccccc3)cc2)CC1	-2.7	2.5%	-17	2%	1%	-0.5
CC(C)CC(=O)NC(=S)Nc1ccc(CN2CCOCC2)cc1	-4.4	.	-8	-6%	2%	1.3
O=C(NC(Cc1c[nH]c2ccccc12)C(=O)O)/C(=C\c1ccc2c(c1)OCO2)NC(=O)c1ccccc1 (configuration not stated)	-0.5	.	7	-20%[15.4 µM]	9%	0.5
COc1ccc(S(=O)(=O)n2ccnc2)cc1C(C)(C)C	.	-2.8%	12	.	.	-1.1
CN1CCCCCC1=NC1=C(C#N)CCCC1	2.8	-10%	8	-53%[inhibitor]	-3%	1.0
CCN(C#N)c1nc(N(C)C)nc(N(C)C)n1	-4.1	-2.6%	-1	2%	-3%	0.2
CCc1ccc2oc(C(=O)Nc3nc(-c4ccccc4)ns3)c(C)c2c1	.	25µM*	-11	.	.	9.8
C/C(=N\NC(=S)NCc1ccccc1)c1ccccc1	1.8	.	-4	?	-9%	0.7
O=C(/C=C/c1ccc([N+](=O)[O-])s1)N1CCCCC1	-0.1	.	15	12%	2%	-0.3
Cc1c(OC(C)C(=O)O)ccc2c3c(c(=O)oc12)CCCC3 (configuration not stated)	-12	3.6%	-4	?	0%	-0.2
OCc1ccc2c(c1)c(-c1ccc3c(c1)OCCO3)c(-c1ccccc1)n2-c1ccccc1	.	4.1%	32	-14%	-8%	-0.2
CC(=O)Nc1ccc(-n2nnnc2SCC(=O)N2CCN(C(=O)c3ccco3)CC2)cc1	-1.5	-1.8%	24	12%	8%	0.1
COc1ccc(/C=C(/NC(=O)c2cccs2)C(=O)Nc2ccc(C)cc2)cc1OC	0.8	40%	23	?	4%	0.0
COC(=O)/C=C1\SC(=Nc2ccc(Cl)c(Cl)c2)NC1=O	4.4	.	26	10%[15.4 µM]	-16%	1.1
O=C(COc1ccc(Cl)cc1[N+](=O)[O-])NC1CCCCC1	0.8	-2.9%	3	9%	1%	1.5
S=c1c2c(nc3nc[nH]n13)CCC2	-1.7	-1.5%	1	9%	5%	-0.7
CCCn1c(SCC(=O)N2CCOCC2)nnc1-c1ccncc1	-0.1	.	0	9%	15%	-0.1
Cc1nc(-c2ccc(F)cc2)c(CC(=O)N2CCN(S(=O)(=O)c3ccccc3Br)CC2)s1	.	1.0%	10	13%	-15%	3.2
CCCCNC(=O)C1CC(=O)N(CCC(C)C)C1 (configuration not stated)	2.5	1.2%	0	-6%	-12%	-0.3
COc1ccc(/C=C2/Sc3ccc(C(=O)NCCN4CCCCCC4)cc3NC2=O)cc1	-0.7	-1.5%	1	24%	1%	0.3
CCOC(=O)CNC(=O)Cn1cnc2c(oc3ccccc32)c1=O	-2.5	-1.0%	-10	?	21%	0.0
CCOc1ccccc1NC(=S)N1CCN(c2nc(-c3cccc(OC)c3)cs2)CC1	8.3	-0.3%	-4	?	-5%	0.0
Cc1ccc(/C=N/NC(=O)c2ccccn2)s1	.	1.8%	-29	16%	-8%	0.1
COC(=O)c1nn(-c2ccc(F)cc2)ccc1=O	-0.2	0.2%	4	-1%[15.4 µM]	5%	0.3
COc1ccccc1-c1nnc(C2CCN(S(=O)(=O)c3ccccc3[N+](=O)[O-])CC2)o1	.	-0.9%	8	-22%	?	1.2
CC#CCN(CC#CC)S(=O)(=O)c1ccc(S(=O)(=O)N2CCOCC2)cc1	1.3	-2.0%	7	8%	-17%	-0.5

Only TRPML1 blocker, gsp antag and Menin-MLL FL inh (6 entries from above):
| SMILES | TRPML1 blocker | gsp antag | Menin-MLL FL inh |
| --- | --- | --- | --- |
| C/C(=N\NC(=S)NCc1ccccc1)c1ccccc1 | -4 | -9% | 1.8 |
| O=C(/C=C/c1ccc([N+](=O)[O-])s1)N1CCCCC1 | 15 | 2% | -0.1 |
| Cc1c(OC(C)C(=O)O)ccc2c3c(c(=O)oc12)CCCC3 (configuration not stated) | -4 | 0% | -12 |
| OCc1ccc2c(c1)c(-c1ccc3c(c1)OCCO3)c(-c1ccccc1)n2-c1ccccc1 | 32 | -8% | . |
| CC(=O)Nc1ccc(-n2nnnc2SCC(=O)N2CCN(C(=O)c3ccco3)CC2)cc1 | 24 | 8% | -1.5 |
| COc1ccc(/C=C(/NC(=O)c2cccs2)C(=O)Nc2ccc(C)cc2)cc1OC | 23 | 4% | 0.8 |

High-throughput results (PubChem)
